miR-21 reporter: qHTS Assay for Modulators of miRNAs and/orActivators of miR-21. AID 2288, 2010. 340,000 tested, under 10 active. HeLa miR-21 FLuc reporter, luciferase, 48 h. Potency, µM (top dose mostly 38.3 µM), for inactives: at the top dose reporter change, positive = more light; active = well fitted rising curve with a large enough effect; inconclusive = small, poorly fitted or top-dose-only effect; inactive = no such curve, though single readings can be large or run the other way;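 also: % of control where 0% means no effect; miR-21 action dims this reporter so a rising signal means less miR-21 action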
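Luminescence from a firefly luciferase reporter carrying a miR-21 binding site downstream, stably expressed under a CMV promoter in HeLa cells that make miR-21 endogenously, reports miRNA modulation after 48 h compound exposure up to approximately 40uM final.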
GLA inh pH 4.5: qHTS Assay for Inhibitors of Human alpha-Galactosidase at pH 4.5. 230,000 tested, under 10 active. purified enzyme, 4-MU-alpha-Gal fluorescence, pH 4.5. activity change, negative = inhibition, % at 105 µM. Alpha-galactosidase A (Homo sapiens), P06280; inconclusive = small, poorly fitted or top-dose-only inhibition, or a rising curve; inactive = flat fitted curve, though single readings scatter; no compound was filed as active;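 also: 0% = full activity with enzyme and -100% = basal without enzyme; dose as in the result columns while the protocol names 77 µM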
Rango release inh: qHTS Assay for Inhibitors of RanGTP induced Rango (Ran-regulated importin-beta cargo) - Importin beta complex dissociation. Snurportin-1 (Homo sapiens) + GTP-binding nuclear protein Ran (Homo sapiens) + Importin …. Biochemical FRET Rango-importin beta, RanGTP-induced dissociation. Potency, µM (highest dose often 46.1 µM), for inactives: at the top dose activity change, negative = inhibition. 0.071% of 340,000 active; active means falling FRET ratio curve, often poorly fitted, with flat reads before Ran was added; inconclusive means other falling curves, or compound fluorescence or quenching; inactive means flat or rising ratio curve;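 also: potency is read from the fitted curve at half-maximal effect; % of control where 0% means no effect; nearly all actives have a fitted effect of over 45% in size; -100% = wells without RanGTP and RCC1; the record marks most hits as doubtful in a second field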
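Rango (0.1 uM)–importin beta (0.25 uM) complex; RanGTP-RCC1 trigger; 45 min RT; CFP/YFP FRET read.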
Rango complex inh: qHTS Assay for Inhibitors of Rango (Ran-regulated importin-beta cargo) - Importin beta complex formation | Importin subunit beta-1 (Homo sapiens), Q14974 | Rango CFP/YFP FRET sensor + importin beta, 45 min | Potency, µM (series often up to 92.2 µM), for inactives: top-dose inhibition of complex formation | 0.031% of 340,000 active | AID 540263, 2011; active = rising FRET ratio curve, often small or poorly fitted; inconclusive = mostly compound fluorescence or quenching in the first reads; inactive = flat curves in all reads;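 also: potency is read from the fitted curve at half-maximal effect; 0% = DMSO wells and 100% = buffer wells lacking importin beta; nearly all actives have a fitted effect of over 15% in size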
Target sequence (Q14974 whole entry, looked up): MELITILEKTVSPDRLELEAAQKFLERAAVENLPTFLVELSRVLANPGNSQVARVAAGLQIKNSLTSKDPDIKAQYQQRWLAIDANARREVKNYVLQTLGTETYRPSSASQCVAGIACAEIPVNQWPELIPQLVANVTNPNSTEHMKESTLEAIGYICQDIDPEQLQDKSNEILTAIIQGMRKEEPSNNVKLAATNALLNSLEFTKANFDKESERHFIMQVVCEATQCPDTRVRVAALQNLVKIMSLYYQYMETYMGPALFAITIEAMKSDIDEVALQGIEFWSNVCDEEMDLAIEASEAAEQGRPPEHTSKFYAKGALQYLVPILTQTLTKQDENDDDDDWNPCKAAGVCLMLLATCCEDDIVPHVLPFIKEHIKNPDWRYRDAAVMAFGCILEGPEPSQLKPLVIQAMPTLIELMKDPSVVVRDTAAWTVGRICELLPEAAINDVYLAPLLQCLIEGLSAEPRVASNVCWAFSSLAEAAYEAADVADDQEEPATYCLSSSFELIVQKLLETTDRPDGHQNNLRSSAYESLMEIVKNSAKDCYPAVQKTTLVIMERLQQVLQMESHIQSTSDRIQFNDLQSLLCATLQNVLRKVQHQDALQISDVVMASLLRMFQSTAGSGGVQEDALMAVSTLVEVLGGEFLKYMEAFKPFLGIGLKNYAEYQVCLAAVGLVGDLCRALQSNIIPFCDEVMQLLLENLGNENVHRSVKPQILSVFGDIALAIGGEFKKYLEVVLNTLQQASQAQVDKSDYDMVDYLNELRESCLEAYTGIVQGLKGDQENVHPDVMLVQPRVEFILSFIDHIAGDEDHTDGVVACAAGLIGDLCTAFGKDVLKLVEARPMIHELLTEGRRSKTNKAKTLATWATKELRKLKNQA
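FRET biosensor Rango (snurportin 1 IBB between N-terminal EYFP and C-terminal Cerulean), 50 nM in PBS/1 mM DTT/0.02% Tween-20/0.1% BSA, preincubated 5 min RT with compound; 0.125 microM importin beta added, 45 min RT, CFP/YFP FRET ratio read.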
An asterisk follows results filed as active; ? = inconclusive; · = not tested or not shown; [ ] = dose if it differs, or a comment.

SMILES	miR-21 reporter	GLA inh pH 4.5	Rango release inh	Rango complex inh
O=C(NCCc1ccc(Cl)cc1)c1cc(=O)[nH]c2ccccc12	-1.7%	·	7.3%	3.6%
CCc1cccc(NC(=O)NC2CCCCC2)c1	-31.5%	0.8	-3.1%	2.3%
Cc1ccc(C(=O)C[n+]2ccccc2C)cc1[N+](=O)[O-]	-15.0%	·	1.1%	-1.6%
COC(=O)c1ccc(CN2CCC(CO)(Cc3ccccc3Cl)CC2)cc1	-0.6%	0.3	27.4%	3.4%
CCCn1c2ccccc2c2nnc(SC(CC)C(=O)Nc3sc4c(c3C#N)CCCC4)nc21 (stereo not given)	0.2%	-5.5	8.9%	-0.4%
COc1ccc(C(=O)NC2CCN(CC(=O)Nc3cccc(OC)c3)CC2)cc1	-5.9%	·	2.7%	0.9%
O=C(COC(=O)C1COc2ccccc2O1)Nc1cccc(Cl)c1 (stereo not given)	·	·	-11.3%	7.8%
Cc1c(C(=O)/C=C/N(C)C)nnn1-c1ccc(Cl)cc1Cl	-15.4%	3.1	-10.3%	?
O=C1N=c2ccccc2=C1c1sc(=S)n(-c2ccc(O)cc2)c1O	-0.4%	-8.6	6.5%	0.0%
COc1ccc(CCNC(=O)c2[nH]c(C)c(C(C)=O)c2C)cc1	2.5%	-2.8	4.6%	-1.1%
CC(C)c1csc(CN2CCN(Cc3ccc(F)c(F)c3)C(CCO)C2)n1 (stereo not given)	5.3%	-7.0	0.8%	-1.1%
COc1ccc(OC)c(-c2nnc3n2N=C(c2ccc(OC)c(OCC4CC4)c2)CS3)c1	·	·	1.3%	4.1%
Cc1ccc(CCN2CC(C(=O)NCCN3CCCCCC3)CC2=O)cc1 (stereo not given)	-1.2%	4.4	13.9%	-5.9%
COc1ccc(NS(=O)(=O)c2cc(NC(=O)C3CCCCC3)ccc2N2CCOCC2)cc1	-21.7%	-7.1	0.4%	-1.7%
CN1CCN(Cc2nc3ccccc3c(=O)n2Cc2nc(-c3cccc([N+](=O)[O-])c3)cs2)CC1	2.1%	7.8	2.3%	0.8%
CCc1ccc(NC(=O)NC2CCCCCCC2)cc1	-40.7%	·	1.2%	-0.2%
CC1CCCCN1C(=O)c1ccc(C(=O)Nc2ccc(F)cc2)cc1 (stereo not given)	·	·	2.4%	-1.4%
CC(C)(CO)CNC(=O)c1ccc2nc(Cc3cccc(Cl)c3)oc2c1	-4.5%	·	-1.5%	-0.7%
CNS(=O)(=O)c1cnccc1N1CCN(c2cccc(C)c2)CC1	-3.3%	4.7	22.9%	-1.9%
Clc1ccc2c(NCCNC3CCCCC3)ccnc2c1	·	·	-6.4%	1.1%

Some of the entries so far, with values under each structure.
Values run as follows: miR-21 reporter	GLA inh pH 4.5	Rango release inh	Rango complex inh
COc1ccc(NS(=O)(=O)c2cc(NC(=O)C3CCCCC3)ccc2N2CCOCC2)cc1
→ -21.7%	-7.1	0.4%	-1.7%
COc1ccc(CCNC(=O)c2[nH]c(C)c(C(C)=O)c2C)cc1
→ 2.5%	-2.8	4.6%	-1.1%
CC(C)(CO)CNC(=O)c1ccc2nc(Cc3cccc(Cl)c3)oc2c1
→ -4.5%	·	-1.5%	-0.7%

(listing goes on)
SMILES	miR-21 reporter	GLA inh pH 4.5	Rango release inh	Rango complex inh
COc1ccccc1C(C#N)N1N=C(C)CC1c1ccccc1 (stereo not given)	-2.8%	·	-10.8%	-1.8%
Cc1ccc(C(=O)N(CC(C)C)c2c(N)n(Cc3ccccc3)c(=O)[nH]c2=O)o1	·	·	12.1%	-1.4%
COc1ccc(C2c3[nH]c4ccccc4c3C[C@H]3C(=O)N(c4ccccc4C(=O)N4CCC(C(=O)O)CC4)C(=O)N23)cc1 (stereo not given in full)	-1.0%	·	-15.7%	?
COc1cccc(NC(=O)CCN2CCN(c3ccccc3F)CC2)c1	-4.1%	2.1	-13.4%	-1.9%
Nc1nnc(C(=O)c2ccccc2N)s1	·	·	5.9%	2.8%
CCOC(=O)c1c(NC(=O)C2CCN(S(=O)(=O)c3ccc(Cl)cc3)CC2)sc2c1CCCC2	-4.7%	1.3	-5.0%	0.0%
O=C(NCc1ccccc1)NCc1cccs1	-34.2%	2.3	-6.2%	-0.3%
O=C(COC(=O)CSc1ccc([N+](=O)[O-])cc1)NCCC1=CCCCC1	·	·	11.7%	-0.1%
CCOC(=O)CCCNC(=O)CCNC(=O)c1ccc(OC)cc1	0.4%	-6.1	-2.0%	-2.7%
CCOc1cc(/C=C2/C(=N)N3OC(C)=CC3=NC2=O)ccc1OC(=O)c1ccco1	7.1%	-8.1[21.1 µM]	?	?
O=c1c(F)cn(C2CCCO2)c(=O)n1Cc1ccccc1F (stereo not given)	-2.4%	-2.2	9.2%	1.9%
CCn1cc(CN2CCC(C(=O)Nc3ccc(Oc4ccccc4)nc3)CC2)cn1	4.3%	·	-26.6%	-1.8%
C/C(=N\NC(N)=O)c1ccc(Cl)s1	2.4%	-4.2	-2.4%	1.2%
CC1CCN(C(=O)COC(=O)Cn2cnc3ccccc32)CC1	·	·	-4.6%	-3.9%
O=C(C1CCCCC1)N1CCN(S(=O)(=O)c2ccc(Br)cc2)CC1	3.2%	-6.8	1.4%	0.3%
CCN1CC2CCCC3(C1)C(=O)NC1(CCCCC1)N=C23 (stereo not given)	-0.2%	-4.2	-15.1%	-3.0%
COc1ccc(-c2nc(C#N)c(NCc3ccccc3Cl)o2)cc1OC	-35.0%	5.3	13.2%	?
COC(=O)c1sccc1NC(=S)Nc1ccc(F)cc1F	-2.4%	1.9	-7.5%	-1.0%
Fc1ccc(NC(=S)N2CCn3cccc3C2c2cccnc2)cc1 (stereo not given)	5.1%	0.2	-16.2%	-0.8%
Cc1[nH][nH]c(=O)c1C(c1ccc(-c2ccc(F)cc2)o1)c1c(C)[nH][nH]c1=O	-10.1%	-5.5	-2.7%	4.3%
CCCSc1nnc(-c2cccc(S(=O)(=O)N(C)C)c2)n1-c1cc(OC)ccc1OC	-8.4%	-2.4	-8.2%	-2.9%
N/C(=N\OC(=O)c1ccc2c(c1)OCO2)c1ccc(Cl)cc1	-44.8%	0.1	0.2%	0.3%
CN(C)S(=O)(=O)Oc1ccsc1C(=O)Nc1ccc(Cl)cc1	-3.9%	-13.4	7.8%	0.7%
COc1ccc(CCNc2cc(C)nc3c(-c4ccccc4)cnn23)cc1OC	-10.7%	-0.5	-4.3%	-0.6%
COC(CNC(=O)c1c[nH]c2ccc(S(=O)(=O)N(C)c3ccc(F)cc3)cc2c1=O)OC	11.6%	·	-5.1%	3.4%
Cc1nccn1Cc1cccc2ccccc12	-4.1%	5.5	-7.0%	3.4%
CCC(C)NCCOCCOc1ccc(Br)cc1 (stereo not given)	-5.5%	5.9	-1.0%	9.0%
Cc1ccc(CN(C)C(=O)c2cccc(S(=O)(=O)N3CCN(Cc4ccccc4)CC3)c2)o1	·	·	23.9%	6.0%
CCOc1cc(C(=O)N/N=C/C2CC=CCC2)cc(OCC)c1OCC (stereo not given)	14.7%	-2.0	-2.6%	4.4%
O=C(c1ccc(-c2cc(O)c3ncccc3c2)cc1)N1CCNCC1	·	·	1.5%	4.9%
CCOC(=O)CN(C(=O)CSc1nnc(-c2ccc(OC)c(OC)c2)o1)c1ccc(F)cc1	1.0%	0.4	5.2%	-2.6%
CCC(C)[C@H](NC(=O)Nc1ccccc1F)C(=O)OC (stereo not given in full)	1.4%	-3.7	0.4%	4.0%
CC1(c2ccccc2)NC(=O)N(CC(=O)NCCN2C(=O)S/C(=C\c3cccnc3)C2=O)C1=O (stereo not given)	·	·	15.8%	1.4%
COc1ccc(C=NNC(=S)NC23CC4CC(CC(C4)C2)C3)cc1OC	·	·	-7.9%	2.8%
CC1CN(C(=O)c2c([N+](=O)[O-])cnn2C)CC(C)O1 (stereo not given)	0.2%	2.6	-6.9%	-0.4%
CCCc1c(C)nc(N2CCN(c3ccccc3OC)CC2)[nH]c1=O	0.3%	·	-8.7%	-1.8%
COCCN(C(=O)CNC(=O)c1ccco1)C(C(=O)NC1CCCC1)c1ccc(F)cc1 (stereo not given)	-0.6%	·	-1.2%	3.0%
C[C@H](CO)N1C[C@H](C)[C@@H](CN(C)C(=O)Nc2ccc(C(F)(F)F)cc2)Oc2ccc(NS(=O)(=O)c3ccccc3)cc2C1=O	·	·	14.0%	1.3%
CC1=N/C(=C/c2ccc([N+](=O)[O-])cc2)C(=O)N1c1ccc(Cl)cc1Cl	-3.0%	-4.3	-5.0%	3.0%
Cc1cc(C)cc(N(CC(=O)N2CCOCC2)S(=O)(=O)c2ccccc2)c1	0.0%	-3.4	14.3%	0.0%

Filtered by structure, those above containing a cyano group
SMILES	miR-21 reporter	GLA inh pH 4.5	Rango release inh	Rango complex inh
CCCn1c2ccccc2c2nnc(SC(CC)C(=O)Nc3sc4c(c3C#N)CCCC4)nc21 (stereo not given)	0.2%	-5.5	8.9%	-0.4%
COc1ccccc1C(C#N)N1N=C(C)CC1c1ccccc1 (stereo not given)	-2.8%	·	-10.8%	-1.8%
COc1ccc(-c2nc(C#N)c(NCc3ccccc3Cl)o2)cc1OC	-35.0%	5.3	13.2%	?

Remaining list, next part.
SMILES	miR-21 reporter	GLA inh pH 4.5	Rango release inh	Rango complex inh
COc1ccc(CN(C(=O)c2ccco2)c2ccc(C)cc2)cc1OC	-4.1%	-6.0	1.6%	0.5%
O=C(CN1C(=O)NC2(CCCC2)C1=O)N1CCN(S(=O)(=O)c2ccccc2)CC1	-1.9%	1.3	-2.9%	13.1%
CCN(CC)c1cc(C)c2cc(NC(=O)c3ccc(Br)o3)ccc2n1	-5.6%	-5.7	-3.3%	3.8%
CCN(CC)S(=O)(=O)c1ccc2c(c1)c(=O)c(C(=O)N1CCOCC1)cn2C	-5.3%	-7.5	0.4%	7.6%
COc1cc(S(=O)(=O)N2CCN(c3ccccn3)CC2)ccc1Br	-2.8%	·	-7.0%	4.3%
O=C(COc1ccc(Cl)cc1)N/N=C/c1cccc2cccnc12	17.2%	·	-4.4%	1.6%
O=C(N[C@H]1CC1c1ccccc1)c1ccc([N+](=O)[O-])cc1 (stereo not given in full)	-44.0%	-4.0	1.1%	4.3%
CCS(=O)(=O)N1CCCC(C(=O)NCCN(C)Cc2ccccc2)C1 (stereo not given)	-2.8%	0.5	?	-0.5%
CN(Cc1ccccc1)C(=O)c1ccc(NC(=O)Cc2cccc(NC(=O)C3CCN(C(=O)C4CCCCC4)CC3)c2)cc1	·	·	4.7%	-1.6%
CCOC(=O)C1CCN(C(=O)COc2ccc(Br)cc2Br)CC1	-2.1%	4.1	3.4%	1.5%
CCCc1nc(-c2ccccc2)c(-c2ccc(OC)c(OC)c2)c(=O)[nH]1	3.7%	·	-0.6%	0.8%
CCC12CN3CC(CC)(CN(C1)C3c1ccccc1Cl)C2O (stereo not given)	-2.9%	-1.1	-10.3%	4.8%
O=C(Nc1nnc(/C=C/c2ccccc2)s1)c1ccco1	-25.0%	-1.9	-14.7%	-4.3%
COc1ccc(-c2cc(C(=O)NCc3cn(C)nc3C)c3ccccc3n2)cc1OC	-3.2%	-14.5	-10.3%	-0.7%
Oc1ccc(/C=N/Nc2ccnc3cc(Cl)ccc23)c(O)c1O	-0.9%	·	-1.1%	7.0%
O=C(c1ccc(F)cc1)N1CCN2C(=O)c3ccccc3C12c1ccc(Cl)cc1 (stereo not given)	-14.8%	-14.8	20.2%	0.0%
C/C(=N\NC(=O)c1csc(C)c1C)c1ccc(Cl)s1	-30.8%	2.8	-3.8%	-5.2%
CC1CCCN(C(=O)CNS(=O)(=O)c2cccs2)C1 (stereo not given)	-13.7%	·	-4.1%	-0.8%
COc1ccc(/C=N/OCc2nc3c4c(ncn3n2)Oc2ccc3ccccc3c2C4c2ccccc2)cc1 (stereo not given)	-4.8%	5.3	0.3%	0.3%
COCCN(C(=O)COC(=O)CCOc1ccccc1C)c1c(N)n(Cc2ccccc2)c(=O)[nH]c1=O	·	·	0.7%	-1.2%
Cc1cc(C)n(CCCNC(=O)c2ccco2)n1	·	·	-9.9%	-2.3%
Cc1ccc2nc(-c3ccncc3)cc(-c3ccccc3)c2c1	-11.1%	-1.8	11.0%	3.0%

Compound activity as filed in PubChem.

Not all compounds are listed. The share of hits here may be higher or lower than overall.
